RE007 growth inh: less growth of the S. pombe RE007 Vpr strain | Potency, µM (top dose mostly 92.2 µM), inactives show at the highest dose activity change, negative = less growth | 360,000 tested, 0.21% active | S. pombe RE007 Vpr strain, BacTiter-Glo ATP luminescence, 24 h; control for the full effect not named in the record; active = well fitted falling curve with a large enough effect; inconclusive = small, poorly fitted or top-dose-only effect; inactive = no such curve, though single readings can be large or run the other way;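 further: on the % scale 0 is the no-effect control and ±100 the full control effect; nearly all actives have a fitted effect of over 50% in size; the assay follows cell death caused by Vpr and the record does not say whether a fall means rescue or toxicity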
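Fission yeast RE007 carrying one integrated HIV-1 vpr copy, seeded at OD 0.01 in PMG+AL medium with 23 nL pinned compound. Grown 24 h at 30 degrees; viability read by BacTiter-Glo luminescence after 5 min.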
Cruzain inh Det: blocks cruzain activity in presence of Triton detergent; purified cruzain, Z-FR-AMC fluorescence, 0.01% Triton; Potency, µM, inactives show max response, negative = inhibition, actives largely listed as inhibitors; 200,000 tested, 0.43% active; active means well fitted curve in the direction sought with a large enough effect; inconclusive means small, poorly fitted or top-dose-only effect, or another doubt; inactive means no such curve, though single readings can be large; an effect the other way counts as inactive or inconclusive;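 further: plate controls were neutral wells for no effect and buffer without enzyme for full effect; nearly all actives have a fitted effect of over 40% in size; top concentration of the series not given in the record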
Target sequence (P25779 123-467 limits assumed): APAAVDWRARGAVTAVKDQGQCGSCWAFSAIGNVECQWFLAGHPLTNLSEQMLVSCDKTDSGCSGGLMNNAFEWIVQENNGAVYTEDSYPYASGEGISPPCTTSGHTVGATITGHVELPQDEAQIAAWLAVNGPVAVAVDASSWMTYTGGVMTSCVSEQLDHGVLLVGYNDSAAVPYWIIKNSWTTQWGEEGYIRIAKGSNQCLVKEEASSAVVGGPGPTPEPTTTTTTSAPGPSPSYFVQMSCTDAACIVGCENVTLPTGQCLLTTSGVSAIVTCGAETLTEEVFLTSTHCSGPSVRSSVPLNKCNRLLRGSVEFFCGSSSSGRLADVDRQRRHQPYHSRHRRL
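Steps: dispense cruzain (1.5 nM final) in acetate buffer pH 5.5 with DTT and 0.01% Triton X-100; pin-transfer compounds; incubate 15 min RT; add Z-FR-AMC (2 uM final); read fluorescence every 30 s, using the 60 s intensity change.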
MARV entry inh: Marburg virus entry inhibition; Marburg virus pseudotyped entry inhibition, cell reporter; control for the full effect not named in the record; about a third of the inactives were read at about 46 µM; Potency, µM (highest dose often 37.8 µM), for the others: at the top dose activity change, negative = inhibition, usual class: inhibitors; 300,000 tested, 1.8% active; active = well fitted inhibition curve with a large enough effect; inconclusive = small, poorly fitted or top-dose-only effect, or effect the other way; inactive = flat fitted curve, though single readings scatter; tested in HEK293 cells; about a fifth of its hits are not listed in these tables; further: on the % scale 0 is the no-effect control and ±100 the full control effect; luciferase read-out
LASV entry inh: inhibitors of Lassa virus binding or cell entry. Potency, µM (highest dose often 37.9 µM), for the others: top-dose activity change, negative = inhibition, hits mostly inhibitors. 300,000 tested, 1.2% active. Lassa virus pseudotype entry inhibition, cell reporter; control for the full effect not named in the record; active means well fitted inhibition curve with a large enough effect; inconclusive means small, poorly fitted or top-dose-only effect, or effect the other way; inactive means flat fitted curve, though single readings scatter; tested in HEK293 cells; further: on the % scale 0 is the no-effect control and ±100 the full control effect; nearly all actives have a fitted effect of over 50% in size; luciferase read-out
StopGo reporter: FMDV 2A StopGo reporter, luciferase signal; AID 1159524; 410,000 tested, 1.2% active; Potency, µM (doses to about 57.9 µM), for inactives: top-dose signal change, negative = less light; human cells with a luciferase reporter of 2A StopGo recoding; control for the full effect not named in the record; active = well fitted falling curve with a large enough effect; inconclusive = small, poorly fitted or top-dose-only effect; inactive = no such curve, though single readings can be large or run the other way; tested in HEK293T cells; further: on the % scale 0 is the no-effect control and ±100 the full control effect; nearly all actives have a fitted effect of over 45% in size; luciferase light after 4 h
NS1 inh: influenza NS1 inhibition | Potency, µM (top dose mostly 46.1 µM), without a hit: top-dose activity, positive = more growth | S. cerevisiae slowed by influenza A NS1, growth recovery by OD600 | 270,000 tested, 0.4% active; further: actives are rising curves; nearly all actives have a fitted effect of over 50% in size
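OD600 was taken as the measure of yeast growth restored by compound in an NS1-expressing S. cerevisiae strain. Cells had been washed out of glucose medium and diluted 1:100 into galactose -URA medium, pH 6.0.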
SARS PLP yeast: blocks SARS-CoV papain-like protease in a yeast assay; 330,000 tested, 0.19% active; Potency, µM (doses to about 32.9 µM), for the others: top-dose activity, positive = growth rescue; S. cerevisiae expressing SARS-CoV PLpro, growth rescue; control for the full effect not named in the record; further: 0% is about no effect; nearly all actives have a fitted effect of over 55% in size; growth read by luminescence after 48 h
Cruzain inh noDet: blocks cruzain activity in detergent-free assay; 200,000 tested, 2.3% active; Potency, µM, inactives show max response, negative = inhibition, most hits filed as inhibitors; P25779; purified cruzain, Z-FR-AMC fluorescence, no detergent; active means well fitted curve in the direction sought with a large enough effect; inconclusive means small, poorly fitted or top-dose-only effect, or another doubt; inactive means no such curve, though single readings can be large; an effect the other way counts as inactive or inconclusive;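 further: plate controls were enzyme without inhibitor for no effect and buffer without enzyme for full effect; nearly all actives have a fitted effect of over 40% in size; top concentration of the series not given in the record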
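Purified cruzain at 1.5 nM, pre-incubated 15 min with compound at room temperature in 100 mM sodium acetate pH 5.5, 5 mM DTT, 0.00005% Triton X-100. Reaction started with 2 uM Z-FR-AMC; AMC fluorescence increase over 60 s gives rate.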
Active calls of the source: *; ? = inconclusive; nt = no result given; & = joins results of further samples; [ ] = remark or other dose. Unless noted, the call rests on the fitted dose curve; in most records, active means well fitted rising curve with a large enough effect; inconclusive means small, poorly fitted or top-dose-only effect; inactive means no such curve, though single readings can be large or run the other way. Potency means the concentration at half of the fitted maximal effect. No enrichment for hits. About 4.5% of those tested had a hit in this group.

Sample of the layout, 2 compounds:
compound | RE007 growth inh | Cruzain inh Det | MARV entry inh | LASV entry inh | StopGo reporter | NS1 inh | SARS PLP yeast | Cruzain inh noDet
CC1CCC2(CC1)NC(=O)N(CC(=O)Nc1ccc3c(c1)CCC3)C2=O (stereo not drawn) | 1% | nt | 10%[46.1 µM] | 2% | 23% | 0% | 0% | nt
Cc1ccc(NC(=O)C2CCCN(C(=O)NCc3ccccc3)C2)c(C)c1 (stereo not drawn) | -3% | nt | -14%[46.1 µM] | 15%[46.1 µM] | -10% | 1% | 2% | nt

This part in full, from the start:
compound | RE007 growth inh | Cruzain inh Det | MARV entry inh | LASV entry inh | StopGo reporter | NS1 inh | SARS PLP yeast | Cruzain inh noDet
CC1CCC2(CC1)NC(=O)N(CC(=O)Nc1ccc3c(c1)CCC3)C2=O (stereo not drawn) | 1% | nt | 10%[46.1 µM] | 2% | 23% | 0% | 0% | nt
Cc1ccc(NC(=O)C2CCCN(C(=O)NCc3ccccc3)C2)c(C)c1 (stereo not drawn) | -3% | nt | -14%[46.1 µM] | 15%[46.1 µM] | -10% | 1% | 2% | nt
CCOC(=O)C1C(=O)NCC1c1ccccc1 (stereo not drawn) | 2% | -1.1% | 19% | 4% | -23% | 1% | 0% | 2%
CC(=O)Nc1cc(C(=O)NCc2ccco2)ccc1Sc1ccc(F)cc1 | 11% | 1.4% | ? | -5% | 4% | ? | 5% | -16%
OC1CSc2nc3ccccc3n2C1 (stereo not drawn) | -4% | nt | ? | 0% | -7% | 2% | 1% | nt
CCOC(=O)C(Cc1ccnc2ccccc12)=NO | 2% | nt | -4%[46.1 µM] | -5%[46.1 µM] | -30% | nt | nt | nt
CC(=O)Nc1cccc(C(=O)/C=C/c2ccc(N(C)C)cc2)c1 | 18% | ? | 4% | -10% | 26% | 25% | -12% | -19%
COc1ccc(C(=O)OC(COc2ccccc2)Cn2ccnc2)cc1 (stereo not drawn) | -2% | -2.4% | ? | 12% | -23% | -27% | -71% | 14%
O=C(Cn1cnc2c(nnn2Cc2ccccc2)c1=O)NCc1ccccc1Cl | 10% | nt | nt | nt | -2% | 6% | -3% | nt
CCCCC1CC(/C(C)=N/NC(N)=O)OC1=O (stereo not drawn) | 3% | 4.2% | ? | 14% | -12% | 13% | -1% | -9%
COc1ccc(O)c(C(=O)/C=C/c2cc3ccccc3o2)c1 | -14% | nt | -1% | ? | ? | -24% | -2% | nt
CC(C)C(NS(=O)(=O)c1ccc2c3c(cccc13)C(=O)N2)C(=O)O (stereo not drawn) | 4% | -2.2% | nt | nt | -13% | 1% | -3% | -2%
CCCCc1cc(=O)oc2cc(C)cc(OCC(=O)NCc3cccnc3)c12 | -7% | nt | 5%[46.1 µM] | ? | -17% | -17% | 1% | nt
CCCCCN(C(=O)CCC(=O)OCC(=O)N(C)c1ccccc1)c1c(N)n(CCCC)c(=O)[nH]c1=O | -3% | nt | ? | -5% | 6% | nt | 5% | nt
Cn1c(=O)c(Oc2ccc(Cl)cc2)c(O)c2ccccc21 | 14% | -5.4% | -9% | 4% | -8% | 5% | ? | -10%
CCCCNC(=O)NCc1cnn(C)c1C | -21% | -0.9% | 3% | 11% | 6% | ? | -47% | -7%
Cc1ccc(Nc2cc(-n3cccn3)ncn2)c(C)c1 | -26% | 0.4% | -3% | -4% | nt | -51% | -3% | 5%
CC(C)(C)OC(=O)N1CCC(c2c(C(=O)N3CCN(c4ncccn4)CC3)cnn2-c2cccc(F)c2)CC1 | nt | -0.8% | nt | ? | -21% | nt | nt | 4%
CC(=O)c1cc(C#N)c(Oc2ccc(F)cc2)nc1C | -13% | 3.7% | 13%[46.1 µM] | -7% | -7% | -81% | -1% | 4%
O=[N+]([O-])c1cccc(-c2ncc3ccccn23)c1 | -18% | nt | 1%[46.1 µM] | -8% | 20% | nt | 2% | nt
Cc1ccc(S(=O)(=O)c2c(C)nn(-c3ccccc3)c2OC(=O)c2ccc(Br)o2)cc1 | -1% | 1.6% | 3% | 2% | 9% | 4% | 9% | -8%
O=C(C1CCN(Cc2nc(-c3ccc(Cl)cc3)no2)CC1)N1CCOCC1 | -5% | nt | nt | nt | ? | -1% | 3% | nt
C=CCSc1nc2sc3c(c2c(=O)n1-c1ccccc1)CCN(C)C3 | -5% | nt | ? | -16%[46.1 µM] | -10% | 5% | 1% | nt
CCN(CC)S(=O)(=O)c1ccc(NC(=S)NC(=O)CC(C)C)cc1 | -3% | -8.5% | 13% | ? | 0% | ? | nt | -9%
Cc1cc(OCC(=O)N2CCN(c3ccccc3)CC2)c2c(C)c(C)c(=O)oc2c1 | 12% | nt | nt | nt | 0% | -11% | -4% | nt
O=C(Nc1nnc(S(=O)(=O)N2CCOCC2)s1)c1ccccc1Cl | -3% | -1.3% | nt | 19%[46.1 µM] | -6%&-18% | 9% | -2% | -5%
CC1(C)Nc2ccccc2N(CCC(=O)N2CCOCC2)C1=O | 20% | -0.8% | 4% | 10% | -13% | 4% | -1% | 1%
CN1CC(=O)N(CC(=O)Nc2cccc3ccccc23)C1=O | 10% | nt | 19% | -5% | -4% | nt | 6% | nt
Cc1ccccc1-n1c(SCC(=O)N2CCCCC2)nc(O)cc1=O | 5% | nt | 27% | 13% | -11% | ? | 18% | nt
CCOc1ccc(N2C(=O)C(C)CNC2=S)cc1 (stereo not drawn) | 11% | nt | 28% | 13% | -12% | nt | nt | nt
c1cncc(CNc2cccc(-c3nc4ccccc4[nH]3)c2)c1 | 14% | -4.0% | ? | ? | -4% | 4% | -5% | 12%
COC(=O)c1c(-c2ccc(OC)cc2)oc2ccc(-c3ccc(OC)nc3)cc12 | 7% | nt | nt | nt | -15% | 8% | -2% | nt
COC(=O)C1=CN(c2cc(C)cc(C)c2)C=C(C(=O)OC)C1c1cccc(F)c1 | 3% | nt | -2%[46.1 µM] | ? | -16% | -4% | -1% | nt
O=C(Nc1ccc(Cl)c(Cl)c1)N1CCOCC1 | 3% | nt | 28% | ? | 28% | -1% | -3% | nt
COC(=O)c1ccc(C(=O)OC)c(NC(=O)CSCc2ccc(Br)cc2)c1 | 6% | 0.4% | -12% | -14% | nt | 7% | -1% | -3%
COc1ccc(-c2cc3c(=O)n(CC(=O)Nc4ccc(Cl)cc4)nc(C)n3n2)cc1 | -1% | nt | -1%[46.1 µM] | 27%[46.1 µM] | -11% | -4% | ? | nt
CC(C)CC(C(=O)NCC1CCCO1)N(C(=O)Cn1nnc(-c2ccc(F)cc2)n1)c1cccc(C(F)(F)F)c1 (stereo not drawn) | -7%[3.69 µM] | -7.4% | ? | -1% | 15% | 13% | 6% | ?
O=C1NC(=O)/C(=C\c2ccc(Oc3ccc([N+](=O)[O-])cn3)cc2)S1 | -9% | -8.0% | nt | nt | 0% | -5% | 20% | 4%
CCNC(=S)NNC(=O)C1CCN(Cc2ccccc2)CC1 | ? | nt | 6%[46.1 µM] | -6% | -5% | nt | -2% | nt
Cc1ccc(C)c2nc3sc(C(=O)N4CCOCC4)c(N)c3cc12 | -2% | nt | ? | -16%[46.1 µM] | 35%[activator] | 0% | 0% | nt

In another format: results already given.
The line under a structure holds: RE007 growth inh, Cruzain inh Det, MARV entry inh, LASV entry inh, StopGo reporter, NS1 inh, SARS PLP yeast, Cruzain inh noDet
> COC(=O)C1=CN(c2cc(C)cc(C)c2)C=C(C(=O)OC)C1c1cccc(F)c1
→ 3%, nt, -2%[46.1 µM], ?, -16%, -4%, -1%, nt
> O=C(Nc1ccc(Cl)c(Cl)c1)N1CCOCC1
→ 3%, nt, 28%, ?, 28%, -1%, -3%, nt

Single records (already shown). Order of values: RE007 growth inh, Cruzain inh Det, MARV entry inh, LASV entry inh, StopGo reporter, NS1 inh, SARS PLP yeast, Cruzain inh noDet
Cc1ccc(C)c2nc3sc(C(=O)N4CCOCC4)c(N)c3cc12 as listed: -2%, nt, ?, -16%[46.1 µM], 35%[activator], 0%, 0%, nt
CCNC(=S)NNC(=O)C1CCN(Cc2ccccc2)CC1 as listed: ?, nt, 6%[46.1 µM], -6%, -5%, nt, -2%, nt
C=CCSc1nc2sc3c(c2c(=O)n1-c1ccccc1)CCN(C)C3 as listed: -5%, nt, ?, -16%[46.1 µM], -10%, 5%, 1%, nt
Cc1ccccc1-n1c(SCC(=O)N2CCCCC2)nc(O)cc1=O as listed: 5%, nt, 27%, 13%, -11%, ?, 18%, nt
O=C(Nc1ccc(Cl)c(Cl)c1)N1CCOCC1 as listed: 3%, nt, 28%, ?, 28%, -1%, -3%, nt

Continued:
compound | RE007 growth inh | Cruzain inh Det | MARV entry inh | LASV entry inh | StopGo reporter | NS1 inh | SARS PLP yeast | Cruzain inh noDet
COc1ccc(NS(=O)(=O)c2cccc(NC(=O)COc3ccc(OC)cc3)c2)cc1 | 1% | nt | nt | nt | 7% | -40% | 1% | nt
Cc1snc(SCc2ccc(Cl)cc2)c1C#N | 7% | nt | nt | nt | 20% | -5% | -5% | nt
CCN(CCCNC(=O)c1cc2c(=O)[nH]c3ccc(C)cc3c2s1)c1ccc(C)cc1 | nt | -4.8% | -10%[46.1 µM] | 12%[46.1 µM] | -9% | nt | nt | 3%
CC(=O)Nc1ccc(Oc2ccc([N+](=O)[O-])cc2Cl)cc1 | 1% | nt | ? | -5% | ? | nt | -1% | nt
CCOC(=O)c1cn(Cc2cccc(C)c2)nn1 | 1% | 0.1% | 4µM* | 4% | -2% | -15% | -5% | 15%
O=C(OCc1ccccc1Cl)c1cccnc1Cl | -18% | -4.2% | 0% | 1% | 10% | -9% | -1% | 1%
O=C(NCCCN1CCOCC1)c1ccc(Cl)cc1[N+](=O)[O-] | 8% | nt | nt | nt | 5% | 1% | 0% | nt
Cc1ccc(-c2cn3c(n2)sc2cc(C(=O)NC4CCCCC4)ccc23)cc1 | nt | -2.4% | nt | -5%[46.1 µM] | 8% | nt | nt | 4%
COc1ccc(NC(=S)N2CCN(c3ccccn3)CC2)cc1OC | -10% | -4.3% | 4% | 0% | 21% | -5% | 3% | 1%
COc1ccc(S(=O)(=O)NC2CCCCCC2)c(OC)c1 | 1% | nt | 19%[46.1 µM] | -12%[46.1 µM] | 25% | -1% | -3% | nt
